Screening data deposited in PubChem BioAssay by several laboratories.
UUG fidelity = modulators of start codon recognition fidelity in yeast. S. cerevisiae UUG-firefly luciferase reporter, luminescence/redox ratio. activity score, % at 18.7 µM. actives 0.13% (n = 350,000). AID 602363;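 active = replicate mean at a twofold rise or more, about +100% in these data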;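 note: firefly luciferase made from a UUG start codon reports start codon fidelity; reporter light over untreated wells divided by growth signal over untreated wells; some hits fall short of that in this replicate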
Rce1 inh = blocks yeast Ras-converting enzyme; Q03530; yeast membranes, quenched prenylated peptide cleavage fluorescence; calls only; actives 0.27% (n = 290,000); AID 2563;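 active = fall in fluorescence gain of 50% or more versus controls, with final raw signal at or below 3038400; inconclusive = same 50% fall but final raw signal above 3038400; inactive = fall in fluorescence gain under 50%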;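 note: plate controls were neutral control wells for no effect and wells lacking membranes for full effect; tested at 10 µM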
Target sequence (Q03530 whole entry, looked up): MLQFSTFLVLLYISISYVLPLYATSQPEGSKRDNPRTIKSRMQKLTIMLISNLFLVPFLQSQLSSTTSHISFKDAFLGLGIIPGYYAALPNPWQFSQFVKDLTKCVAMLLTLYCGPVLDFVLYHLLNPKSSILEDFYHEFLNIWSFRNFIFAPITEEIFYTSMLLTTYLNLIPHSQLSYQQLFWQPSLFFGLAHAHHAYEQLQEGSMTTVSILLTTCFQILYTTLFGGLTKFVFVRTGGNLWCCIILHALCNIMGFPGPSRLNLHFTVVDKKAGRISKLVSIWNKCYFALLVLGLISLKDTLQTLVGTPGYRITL
CSC inhib = cancer stem cell inhibition; cancer stem cell-like cells viability, luminescence; inhibition, % at 7.5 µM; actives 1.1% (n = 300,000); AID 2717;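 active = mean at 75% or more and at least half the replicates too; inconclusive = mean and replicates disagree; tested in HMLE shEcad cells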;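 note: 0% = median of negative and 100% = median of positive control wells; the first replicate is given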
PABP FP inh = PABP-poly(A) binding inhibition | PABP-poly(A) RNA binding, fluorescence polarization | inhibition, % at 35 µM | actives 1% (n = 290,000) | AID 2014;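 active = 50% or more with normal probe brightness, or confirmed in later tests; inconclusive = above 50% with abnormal brightness, or retests that disagree; inactive = below 50% or failed in later tests; about a fifth of its hits are not listed in these tables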;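 note: calls also rest on retests at 20 µM and on dose response follow-up; controls were probe without protein and protein plus probe with vehicle; some compounds called inactive have numbers as strong as hits; many hits fall short of the cut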
Target sequence (P11940 whole entry, looked up): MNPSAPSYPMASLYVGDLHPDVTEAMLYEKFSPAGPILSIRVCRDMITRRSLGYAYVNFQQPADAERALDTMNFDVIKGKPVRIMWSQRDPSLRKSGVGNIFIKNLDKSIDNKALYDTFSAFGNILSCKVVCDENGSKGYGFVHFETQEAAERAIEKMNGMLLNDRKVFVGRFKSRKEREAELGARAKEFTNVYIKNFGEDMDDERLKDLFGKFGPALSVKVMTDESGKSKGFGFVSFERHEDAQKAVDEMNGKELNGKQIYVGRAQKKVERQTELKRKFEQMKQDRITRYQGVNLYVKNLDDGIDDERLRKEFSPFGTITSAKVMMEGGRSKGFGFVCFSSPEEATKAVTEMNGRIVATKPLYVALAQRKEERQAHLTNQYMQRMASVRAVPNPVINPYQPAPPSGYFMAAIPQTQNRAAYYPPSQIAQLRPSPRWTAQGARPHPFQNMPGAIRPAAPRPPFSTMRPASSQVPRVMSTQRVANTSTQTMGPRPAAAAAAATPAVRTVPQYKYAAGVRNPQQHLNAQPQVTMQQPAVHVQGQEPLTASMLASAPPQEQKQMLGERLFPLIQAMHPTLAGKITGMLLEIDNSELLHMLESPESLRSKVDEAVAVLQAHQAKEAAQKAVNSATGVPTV
MT1-MMP act inh = inhibitors of human MT1-MMP activation | HT1080 RFP-PRO-GFP cells, GFP/RFP ratio fluorescence, overnight; percent of plate control window, DMSO zero | GFP/RFP ratio change, % at 20 µM | actives 0.061% (n = 360,000) | P50281 | AID 651647;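 active = GFP/RFP ratio change of at least 30% with cell ATP level not reduced by more than half and red fluorescence within 50% of control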; note: strong numbers were not always called active
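Test system: HT1080 cells expressing an RFP-PRO-GFP fluorescent reporter construct / Compound dosing: single-point 20 µM compound, 1% DMSO / Schedule: cells overnight before dosing, compound overnight, 37 °C, 5% CO2 / Evaluation: GFP/RFP fluorescence ratio / Control set: DMSO and RFP-L50D-GFP cell wells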
HIV Env fusion = HIV envelope-mediated fusion inhibition; actives 1.1% (n = 360,000); inhibition, % at 12.3 µM; HeLa-JRFL Env/CEM21 cell fusion, luciferase;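 active = mean replicate inhibition score of at least 50 and every replicate individually at or above 50; inconclusive = only one of the two criteria met; inactive = mean below 50 and not all replicates reaching 50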;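 note: 0% = plate neutral controls and 100% = maraviroc near 300 nM; one replicate is shown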
eIF4H FP inh = inhibitors of RNA binding by human eIF4H | AID 2012 | inhibition, % at 35 µM | actives 0.94% (n = 290,000) | eIF4H fluorescence polarization binding assay;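 active = 50% or more with normal probe brightness, or confirmed in later tests; inconclusive = above 50% with abnormal brightness, or retests that disagree; inactive = below 50% or failed in later tests; about a fifth of its hits are not listed in these tables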;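 note: calls also rest on retests at 20 µM and on dose response follow-up; 0% = protein and probe with vehicle and 100% = probe without protein; strong numbers were not always called active; many hits fall short of the cut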
MT1-MMP act inh RFP = recorded beside MT1-MMP act inh, whose call it bears; RFP signal change, %; measured here: RFP expression control read;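 0 = vehicle wells; hits needed this value within 50% of zero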
Numbers without * were called inactive; i = inactive; ? = inconclusive; . = no result given. Rows were taken by chance; about 2.9% have a hit in one of these screens.

Each structure is followed by: MT1-MMP act inh | UUG fidelity | PABP FP inh | eIF4H FP inh | HIV Env fusion | CSC inhib | Rce1 inh | MT1-MMP act inh RFP
> CN(C)c1ccc(-c2ccnc3c2CC(C)(C(=O)NCc2ccncc2)O3)cc1 (centres undefined)
 : -2 | -6 | . | . | 36 | . | . | -3
> Cc1cccc(C)c1OCc1cc(C(=O)N2CCNC(=O)C2)no1
 : -8 | -7 | -5 | -7 | -9 | 11 | i | -4
> CCN(CC)CC(=O)Nc1sc(C)c(C)c1C(=O)c1ccc(C)cc1
 : -5 | -8 | 0 | 3 | 8 | 28 | i | -7
> O=C(C[n+]1cccc(O)c1)Nc1ccc(Br)cc1
 : -2 | . | 2 | 5 | 2 | 0 | i | 0
> O=C(NC(c1ccc(Cl)cc1)c1cnccn1)C1CCN(Cc2cccc(C(F)(F)F)c2)CC1 (centres undefined)
 : 7 | 12 | . | . | 2 | . | . | -4
> COc1cc(NC(=O)c2ccco2)c(OC)cc1NC(=O)Nc1cccc(Cl)c1
 : 1 | -22 | 7 | 2 | . | 4 | i | -3
> CCS(=O)(=O)Nc1ccc2[nH]c(=O)[nH]c2c1
 : 3 | . | -3 | -3 | -9 | 14 | i | 2
> CS(=O)(=O)N1CCC(Oc2cccc(C(=O)NCCCOc3cccnc3)c2)CC1
 : -6 | 8 | 3 | 8 | ? | -16 | i | -3
> Cc1ccc(NC(=O)CSc2nc(=O)n(CCCN3CCOCC3)c3c2CCCC3)c(C)c1
 : 2 | 9 | . | . | -3 | -8 | i | -5
> CCCS(=O)(=O)N1CCN(Cc2ccccc2C(F)(F)F)CC1
 : 11 | . | 12 | -14 | -14 | 0 | i | 3
> CCOc1ccccc1N1CC(C(=O)NNC(=O)c2ccc(F)cc2)CC1=O (centres undefined)
 : -1 | -13 | . | . | . | 2 | i | -1
> O=C(Nc1ccc2oc(-c3ccccc3)nc2c1)c1cccs1
 : -2 | -6 | -3 | 6 | -176 | 1 | i | -8
> CC(C)c1ccc(C(=O)N2CCCC(c3cc(C(=O)Nc4ccccc4Cl)no3)C2)cc1 (centres undefined)
 : -7 | -9 | . | . | 8 | . | . | -9
> Clc1ccc(SCNc2ccccc2Cl)cc1
 : -1 | -15 | -1 | 4 | -2 | -2 | i | -1
> NC(=O)N/N=C/c1cn(-c2ccccc2)nc1-c1cccs1
 : 1 | . | -5 | 0 | -69 | 28 | i | -1
> COc1ccc(S(=O)(=O)N2CCOC2CNC(=O)C(=O)NCCc2c[nH]c3ccccc23)cc1 (centres undefined)
 : 2 | -2 | 44 | -8 | 20 | -5 | i | -17
> O=Cc1c(F)cccc1N1CCCC1
 : -4 | -8 | 32 | 6 | -4 | -6 | i | 3
> COC(=O)C(Cc1ccc(OC(=O)c2ccc(Cl)cc2)cc1)N1Cc2ccccc2C1=O (centres undefined)
 : -1 | -19 | -7 | -14 | . | 3 | i | 4
> C=CCn1c(C)c(C(=O)OCC)c2cc(O)c3ccccc3c21
 : 4 | -19 | 0 | 4 | -5 | -7 | i | 2
> CCOc1cc(/C=N/NC(=O)CN2CCOCC2)ccc1OCc1ccc(Cl)cc1
 : -4 | -20 | 10 | -7 | -12 | -7 | i | -9

Fetched one by one from the list above, 2 records:
Each structure is followed by: MT1-MMP act inh | UUG fidelity | PABP FP inh | eIF4H FP inh | HIV Env fusion | CSC inhib | Rce1 inh | MT1-MMP act inh RFP
> COc1ccc(S(=O)(=O)N2CCOC2CNC(=O)C(=O)NCCc2c[nH]c3ccccc23)cc1 (centres undefined)
 : 2 | -2 | 44 | -8 | 20 | -5 | i | -17
> C=CCn1c(C)c(C(=O)OCC)c2cc(O)c3ccccc3c21
 : 4 | -19 | 0 | 4 | -5 | -7 | i | 2

The list continues:
Each structure is followed by: MT1-MMP act inh | UUG fidelity | PABP FP inh | eIF4H FP inh | HIV Env fusion | CSC inhib | Rce1 inh | MT1-MMP act inh RFP
> CC1CCN(S(=O)(=O)c2cccc(C(=O)Nc3nncs3)c2)CC1
 : 3 | -21 | 0 | -9 | -5 | -5 | i | 1
> Cc1ccc(CCN2CC(C(=O)NCc3ccc4c(c3)OCO4)CC2=O)cc1 (centres undefined)
 : 0 | -10 | 1 | -12 | -5 | -2 | i | 1
> COc1ccc(-c2nnc(SCC(=O)Nc3nncs3)o2)cc1
 : 6 | -14 | 18 | -4 | 18 | -13 | i | 2
> CCOC(=O)N1CCN(S(=O)(=O)Cc2ccccc2)CC1
 : 1 | -3 | -3 | -2 | . | -5 | i | -2
> O=c1oc2ccccc2nc1/C=C(O)/C=C\c1ccccc1
 : -1 | . | 22 | 5 | . | 7 | i | 10
> Cc1nn(-c2ccccc2)c(N)c1Sc1ccc([N+](=O)[O-])cc1
 : -3 | . | 20 | -8 | -8 | -1 | i | -9
> COc1ccc2c(c1OC)C(=O)OC2CC(=O)c1ccc(O)c(O)c1 (centres undefined)
 : -3 | -9 | 11 | 4 | 7 | -10 | i | 1
> O=C(NC1(C(F)(F)F)NC(=O)N(Cc2ccccc2)C1=O)c1cccnc1 (centres undefined)
 : -1 | 1 | -1 | -4 | . | -10 | i | -2
> CC(=O)C(Cc1ccccc1)NC(=O)COc1ccc2c(c1)OCO2 (centres undefined)
 : -4 | . | . | . | -13 | 6 | . | 4
> C=C1CN(Cc2ccccc2)S(=O)(=O)c2ccccc21
 : 0 | -19 | -5 | -5 | -14 | -8 | i | 3
> COc1ccc(CNC(=O)CSc2ncn[nH]2)cc1OC
 : 3 | -5 | -12 | -10 | 5 | 6 | i | 0
> COc1ccc(N2C(=O)CC(Nc3ccc(F)cc3)C2=O)c([N+](=O)[O-])c1 (centres undefined)
 : 3 | -8 | -14 | -6 | -6 | 0 | i | 9
> CCn1c(SCC(=O)Nc2ccccc2)nc2nc3c(cc2c1=O)COC(C)(C)C3
 : . | . | -4 | -10 | 12 | -12 | i | .
> COc1ccc(-c2nc(C#N)c(N3CC(C)OC(C)C3)o2)cc1OC (centres undefined)
 : 2 | -23 | -16 | -5 | . | -13 | i | 5
> Cc1ccc(-c2nc(=S)c3c(n2CC2CCCO2)CC(C)(C)OC3)cc1 (centres undefined)
 : 2 | -8 | 19 | -3 | -32 | . | i | 5
> O=C(O)C1CCN(C(=O)c2ccc(Cl)cc2)CC1
 : 2 | 0 | 9 | -6 | . | -3 | i | 1
> CC(NC(=O)COC(=O)c1cccnc1Cl)C12CC3CC(CC(C3)C1)C2 (centres undefined)
 : -1 | 2 | . | . | -4 | -4 | . | 3
> CC1CC1C(=O)N1CCN(S(=O)(=O)c2cc(C(F)(F)F)cc(C(F)(F)F)c2)CC1 (centres undefined)
 : 6 | -11 | . | . | . | 79* | . | -9
> Cn1c(=O)c2c(nc(NCCCO)n2C/C=C/c2ccccc2)n(C)c1=O
 : -2 | -6 | 14 | 5 | . | -6 | i | 1
> Cc1ccc2c(CN3CCCCC3C)cc(=O)oc2c1 (centres undefined)
 : 2 | -24 | 5 | -7 | -14 | 1 | i | 4
> CCc1ccc(CN(C)C(=O)CCc2nnc(CCc3ccccc3OC)o2)nc1
 : -2 | -7 | 0 | -12 | 8 | -16 | i | -1
> CCOC(=O)/C=C1\SCC(=O)N1CC(=O)Nc1cc(S(=O)(=O)N(C)C)ccc1C
 : -8 | -6 | . | . | 3 | -15 | . | -1
> COc1cc([N+](=O)[O-])ccc1N1C(=O)C2C3C=CC(C4CC34)C2C1=O (centres undefined)
 : 4 | -5 | 14 | 3 | 13 | 2 | i | -8
> COc1cc(C2C3C(=O)N(c4ccc(F)cc4)C(=O)C3ON2c2ccccc2)ccc1O (centres undefined)
 : 1 | -21 | 6 | 7 | -11 | 6 | i | 0
> COc1ccc(-c2cc(C3CC3)nc(N)c2C#N)cc1
 : -1 | -19 | -5 | 9 | -6 | 13 | i | -5
> Cc1cccc(NC(=O)c2cnc3n(c2=O)CCS3)c1
 : 4 | . | -16 | -11 | -131 | -6 | i | 4
> CCc1ccccc1NC(=O)c1cc(=O)c2ccccc2o1
 : 0 | 0 | 4 | -7 | -9 | -17 | i | -6
> COc1cccc(NC(=O)CCC(=O)Nc2cccc(OC)c2)c1
 : -2 | -12 | 9 | 0 | 9 | 13 | i | 1
> Clc1ccccc1-c1ccc2nccn2c1
 : 2 | -16 | . | . | -46 | . | . | 2
> COC(=O)c1cc(C(=O)N2CCN(C(=O)c3ccco3)CC2)cc([N+](=O)[O-])c1
 : -2 | 6 | 2 | -3 | -13 | -16 | i | 1
> COC(=O)COc1ccc(S(=O)(=O)NCC2CCCO2)cc1Cl (centres undefined)
 : -1 | 10 | 5 | 0 | 0 | -3 | i | 3
> O=C1NC2(CCCCC2)N(C(=O)c2ccccc2)C2=C1CCCC2
 : -6 | . | -8 | 5 | 17 | 1 | i | -1
> CN(C)S(=O)(=O)c1ccc(C(=O)NCc2nc3ccccc3s2)cc1
 : 1 | 14 | -2 | -11 | -6 | 1 | i | 0
> NC(=O)c1cccc(Nc2nc(C(N)C3CCCCC3)cs2)n1 (centres undefined)
 : -5 | -26 | . | . | -325 | . | . | -6
> CCN(CC)C(=O)C(=O)c1cccn1-c1c(Cl)cccc1C#N
 : 0 | . | -13 | -3 | 9 | -15 | i | 3
> c1cc2c(cc1NC1CCCCCC1)OCO2
 : -15 | -15 | 16 | 14 | 5 | -11 | i | 4
> O=C(c1ccc(Cl)cc1Cl)c1ncc(C(F)(F)F)cc1Cl
 : 4 | -12 | 2 | -3 | -12 | -17 | i | 2
> CC(C(=O)Nc1ccc2[nH]c(=O)[nH]c2c1)N1CCN(Cc2ccc3c(c2)OCO3)CC1 (centres undefined)
 : 1 | -10 | . | . | -7 | . | . | -1
> COc1ccc(S(=O)(=O)N2CCC(C(=O)NCCC(=O)NC3CC3)CC2)cc1
 : 0 | -5 | 11 | 2 | 3 | -8 | i | 2
> Cc1cc(-c2nnc3n2N=C(c2ccccc2)CS3)n[nH]1
 : 0 | -16 | 4 | 9 | -13 | 17 | i | -1
> COC(=O)c1sccc1-n1cccc1C(=O)C(=O)N1CCCC1
 : -3 | . | -4 | -11 | . | -7 | i | 4
> CC(C)Sc1nc2ccccc2[nH]1
 : 3 | . | -4 | -3 | -1 | -11 | i | 0
> COc1cc2nc(N(CCN(C)C)C(=O)c3ccc4ccccc4c3)sc2cc1OC
 : 2 | 1 | 2 | -2 | . | -1 | i | 9
> COc1ccc(C(=O)C(CO)Oc2ccccc2OC)cc1OC (centres undefined)
 : 2 | . | 8 | -1 | . | 8 | i | 1
> CCOc1ccccc1OCCCC(=O)NC1CCCc2ccccc21 (centres undefined)
 : 1 | 17 | 1 | -8 | 21 | 2 | i | 0
> Cn1c(SCC(=O)Nc2ccc(C(=O)O)cc2)nc2scc(-c3ccccc3Cl)c2c1=O
 : 0 | -39 | . | . | -23 | . | . | 3
> O=C(/C=C/Nc1cccc(F)c1)c1ccco1
 : 2 | -9 | -2 | -6 | -130 | -6 | i | -2
> COc1ccc(-n2cc(CNCCCN3CCCC3=O)c(-c3ccccc3Cl)n2)cc1
 : -5 | . | -15 | -12 | 4 | -6 | i | -3
> CCSc1nnc(NC(=O)c2csc(C)c2)s1
 : 8 | 6 | -6 | 0 | -69 | -9 | i | 2
> CCC(C(=O)Nc1cccc(C(=O)O)c1)c1ccccc1 (centres undefined)
 : 5 | . | 15 | -13 | 11 | -4 | i | 3
> Cc1ccc(C)c(N(C(=O)CCC(=O)Nc2cc(C)on2)C(C(=O)NC2CCCC2)c2ccco2)c1 (centres undefined)
 : -1 | -18 | 2 | 0 | . | -18 | i | -6
